# Compound activity (PubChem BioAssay)
# Biofilm kill mix – mixtures killing C. albicans biofilm; inhibition, % at 7.6 µM; 120,000 tested, 0.02% active; C. albicans biofilm persisters + clotrimazole, fluorescence viability; primary screen in compound mixtures of four per well;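 active = inhibition above 30.3% in the primary screen of four-compound pools, then above 30% when the compound was retested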;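 also: compounds exposed to preformed 24 h biofilms for 48 h; the number belongs to the whole pool; some results filed as inactive read as strong as hits; inactives centre near 12; 0% = biofilm with clotrimazole alone and 100% = kill control; retested singly at about 60 µM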
#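 Assay system: C. albicans biofilms / Medium: RPMI/MOPS medium, pH 7.0 / Schedule: biofilm formation 24 h, compound exposure 48 h, 37 °C / Measured by: Alamar Blue fluorescence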
# An asterisk follows results filed as active; & = joins results of further samples. These rows are one share of the data; count on the stated rates, not on these rows.
Compound	Biofilm kill mix
O=S(=O)(NC1CC1)c1ccc2c3c(cccc13)CC2	19
Cc1cccc2sc(NNC(=O)c3ccc4c(c3)OCCO4)nc12	3
COC(=O)C1=C(C)NC(=O)CC1c1ccccc1OC (centres undefined)	5
COc1ccc(NC(=O)Nc2cc(C)ccc2F)cc1OC	-13
N#C/C(=C/c1ccccc1[N+](=O)[O-])C(=O)NCc1ccco1	22
NC(Cc1ccc(Oc2ccc(O)cc2)cc1)C(=O)O (centres undefined)	7
COCCCNCCC(CCC(C)C)c1ccc2c(c1)OCO2 (centres undefined)	23
O=C(CNCc1ccccn1)Nc1cc(C(F)(F)F)ccc1N1CCOCC1	6
COc1cccc(NC(=O)Cn2c(CCC(=O)O)ccc2-c2ccc(C)cc2)c1	-1
CCn1c(SCC(=O)N/N=C/c2ccc(O)c(OC)c2)nc2ccccc21	17
N#C/C(=C/c1cc[nH]c1)C(N)=S	10
CCOC(=O)CSc1nnc(NC(=O)c2cc([N+](=O)[O-])cc([N+](=O)[O-])c2)s1	3
NNC(=O)/C(=C\c1cccs1)NC(=O)c1ccccc1	17
Cc1cccc(NC(=O)Cn2nc([N+](=O)[O-])c(Br)c2C)n1	6
Cc1cc(F)ccc1NCC(=O)Nc1ccccc1Br	17
CC(NC(=O)CNC(=O)C(Cc1ccccc1)NC(=O)OCc1ccccc1)C(N)=O (centres undefined)	19
Cc1[nH]c(=O)[nH]c(=O)c1/C=C/C(=O)O	12
O=C(CSc1ccncc1)Nc1ccc2ccccc2c1	9
O=C(Nc1nc(-c2ccccc2)c(C(=O)c2ccccc2)s1)c1ccc(S(=O)(=O)N2CCCC2)cc1	17
CCN1CCc2c(OCC(=O)Nc3ccc4c(c3)OCCO4)cccc2C1=O	13
O=C(Nc1nc2ccccc2[nH]1)c1cccc([N+](=O)[O-])c1	7
CC(=O)N1CCN(c2ccccc2NC(=O)c2ccc(C#N)cc2F)CC1	3
COc1ccc(CNC(=O)CSc2nc3[nH]ncc3c(=O)n2-c2ccccc2Br)cc1	17
Cn1c(-c2cccc([N+](=O)[O-])c2)cnc1NCc1cccc([N+](=O)[O-])c1	-6
C=CCn1c(-c2cccnc2Cl)nc2ccccc21	4
CCCCNCCOc1ccccc1-c1ccccc1	12
CC1(C)CC(=O)C([N+](=O)[O-])=C(NCCCC(=O)O)C1	16
CC(C)Cn1c(SCC(=O)NCc2ccco2)nnc1-c1ccncc1	18
CN1C2CCC1CC(OC(c1ccccc1)c1ccccc1)C2 (centres undefined)	8
C#CCNC(=O)C1=C[C@@H](C2CC2)[C@H](CCCO)[C@@H](OCC)O1	11
CCOc1cc(/C=C(/NC(C)=O)C(=O)O)cc(Cl)c1OCc1ccc(Br)cc1	16
COc1cccc(CN2CCCCC2C(=O)O)c1 (centres undefined)	16
O=C(NNC1=Nc2ccccc2SC1)c1ccc(Cl)cc1	23
N#C/C(=C\c1c(N2CCCCCC2)nc2ccccn2c1=O)C(=O)NC1CCS(=O)(=O)C1 (centres undefined)	5
Nc1ncnc(Nc2ccc(S(N)(=O)=O)cc2)n1	13
Cc1ccc(NC(=O)CCn2nnc3ccccc32)c(C)c1	7
Cc1ccc(Nc2nc(N)c([N+](=O)[O-])c(NCCO)n2)cc1C	15
CCOC(=O)C(=O)Nc1ccccc1C(=O)OC	-1
Cc1nc([N+](=O)[O-])cn1CC(O)c1ccccc1 (centres undefined)	9
O=C(C1CCCC1)N1CCC(CO)(Cc2ccccc2Cl)CC1	28
COCCNC(=S)N/N=C/c1c(C)[nH]c2ccccc12	4
O=[N+]([O-])c1ccc(-n2nnnc2-c2ccccc2)c([N+](=O)[O-])c1	9
COc1ccc(CNC(=O)c2sc3nc4c(c(C(F)(F)F)c3c2N)CCC4)cc1OC	11
O=C(CCNC(=O)c1ccccc1)OCC(=O)c1cccc(Cl)c1	10
CC(=O)c1sc(-c2ccccc2)nc1C	-2
COc1ccccc1NS(=O)(=O)c1cc(C(=O)NCCC(C)C)ccc1F	13
CC(C)(CC(=O)O)CC(=O)Nc1cc(C(F)(F)F)cc(C(F)(F)F)c1	29
COc1ccc(NC(=O)CSc2nnc(C3CCCCC3)n2N)cc1	26
Cc1ccc(Oc2ncnc(N)c2[N+](=O)[O-])cc1C	16
Cc1oc2c(cc(NS(=O)(=O)c3cccs3)c3ccccc32)c1C(=O)OC(C)C	14

# (further entries)
Compound	Biofilm kill mix
CCCCOC(=O)c1ccc(NC(=O)c2ccccc2OC)cc1	10
COc1ccc(CCN2C(=O)N(c3ccc(OC)cc3)C(=O)C2CC(=O)Nc2ccccc2)cc1 (centres undefined)	16
COc1cc(NC(=O)c2ccnn2C)c(OC)cc1Cl	16
CC(=O)COC(=O)C1CCN(S(=O)(=O)c2cc([N+](=O)[O-])ccc2Cl)CC1	18
CC1CCCCN1S(=O)(=O)c1ccc(N(C(=O)c2cnccn2)C(C(=O)NC2CCCCC2)c2cccs2)cc1 (centres undefined)	4
Nc1cc(-c2cccc(Br)c2)nn1Cc1ccccc1	12
O=C(Nc1ccc(N2CCN(C(=O)c3ccco3)CC2)cc1)c1ccco1	2
Cc1nn(-c2ccccc2)c(C)c1/C=C/C(=O)OC(C)C(N)=O (centres undefined)	6
CCOC(=O)c1cc(CC)sc1NC(=O)c1ccc([N+](=O)[O-])c(N2CCOCC2)c1	-1
COc1ccc(CCNc2nc(-c3ccc(NC(C)=O)cc3)cs2)cc1OC	13

# 6 entries picked at random from those above, as already listed:
Compound	Biofilm kill mix
Cc1nn(-c2ccccc2)c(C)c1/C=C/C(=O)OC(C)C(N)=O (centres undefined)	6
COc1ccc(CCNc2nc(-c3ccc(NC(C)=O)cc3)cs2)cc1OC	13
Nc1cc(-c2cccc(Br)c2)nn1Cc1ccccc1	12
COc1cc(NC(=O)c2ccnn2C)c(OC)cc1Cl	16
CC(=O)COC(=O)C1CCN(S(=O)(=O)c2cc([N+](=O)[O-])ccc2Cl)CC1	18
O=C(Nc1ccc(N2CCN(C(=O)c3ccco3)CC2)cc1)c1ccco1	2

# Next compounds:
Compound	Biofilm kill mix
CCOC(=O)Cc1[nH]nc2c1C(c1ccsc1)C(C#N)=C(N)O2 (centres undefined)	10
CC(C)C(NC(=O)Cc1ccccc1[N+](=O)[O-])C(C)C	11
CCCCn1c(-c2ccco2)nc2oc3ccccc3c(=O)c2c1=O	6
Cc1ccc(S(=O)(=O)N2CCCCC2)cc1NC(=O)CSc1ccc2c(c1)OCCO2	9
C/C(N)=C(/C#N)C(=O)COC(=O)c1ccccc1Cc1ccccc1	7
CCOC(=O)N1CCN(C(=S)NC(=O)c2ccc(F)c(F)c2)CC1	25
O=C(COc1ccc2c(c1)OCO2)Nc1ccccc1F	8
O=C1C(Nc2ccccc2)=C(NS(=O)(=O)c2ccccc2)C(=O)c2ccccc21	18
Cc1cc(C)cc(N2C(=O)CC(Sc3ncn[nH]3)C2=O)c1 (centres undefined)	20
CCCCNC(=S)Nc1ccc(SC(F)F)cc1	12
Cc1ccc(SCc2cc(=O)[nH]c(Nc3nc(C)c4ccc(C)cc4n3)n2)cc1	19
COc1ccc(N(C(C)C(=O)Nc2cccnc2)S(C)(=O)=O)cc1 (centres undefined)	27
COCCNC(=O)c1cn(C(C)c2ccccc2F)nn1 (centres undefined)	12
CC(C)CNC(=S)Nc1ccc(Oc2ccccc2)cc1	12
CN(C(=O)COC(=O)c1cc([N+](=O)[O-])ccc1N1CCCC1)C1CCS(=O)(=O)C1 (centres undefined)	12
COCc1c(N)c(C)nc(Cl)c1C#N	2
CCCCN(CCCC)C(=O)c1cc2ccccc2c(=O)o1	11
CCNC(=S)Nc1ccc(Cl)c(C(F)(F)F)c1	23
Cc1nc(N2CCCCC2C)c2c(C)c(C(=O)Nc3cccc(C(F)(F)F)c3)sc2n1 (centres undefined)	16
CCN(CC)S(=O)(=O)c1ccc(C)c(NC(=O)CSc2ncc(C(F)(F)F)cc2Cl)c1	12
CCOc1ccccc1NC(=O)/C=C/c1ccccc1[N+](=O)[O-]	16
CCn1c2ccccc2c2cc(CN3CCN(S(C)(=O)=O)CC3)ccc21	12
COc1ccc(-c2cc(C(=O)Nc3ccc(O)cc3)c3ccccc3n2)cc1OC	-4
O=C(Nc1ccc(C(=O)O)cc1)/C(=C/c1cccc(Br)c1)NC(=O)c1ccco1	24
CC1=CC(C)(C)NC(=O)N1c1ccc(C)cc1	12
CCn1c2c(c(C)cc1=O)C(=O)CC(C)(C)C2	6
C/C(CC(=O)NCc1ccc(Cl)cc1)=N\NC(=O)Cc1ccccc1	5
CC(CC(=O)Nc1nc2ccccc2[nH]1)n1ccnc1 (centres undefined)	8
O=C(CCC(=O)N(CC(=O)NC1CCCC1)Cc1ccc2c(c1)OCO2)Nc1nccs1	5
CN(c1ccccc1)S(=O)(=O)c1cccc(C(=O)OCC(=O)NCCCN2CCCC2=O)c1	-1
CN1CCN(C(=O)C2=C[C@H](c3csc4ccccc34)C[C@H](OCc3ccc(CO)cc3)O2)CC1	20
COc1cc(/C=N/NC(=O)c2ccc(O)cc2)ccc1OCC(=O)N1CC(C)OC(C)C1 (centres undefined)	15
CCc1cc2c(=O)[nH]c(Cc3ccc(OC)cc3)nc2s1	39
CC(C)(C)OC(=O)NCCCCCc1nnc(SCc2ccccc2F)o1	2
COc1ccccc1OCC(=O)N/N=C/C=C/c1ccc([N+](=O)[O-])o1	10
CC(C)CNC(=O)NC(=O)COC(=O)c1cc(F)cc(F)c1	9
COC(=O)c1nn(Cc2ccccc2)c(=O)c2ccccc12	7
CCCC(c1nnnn1CCOC)N1CCN(c2nc3ccccc3s2)CC1 (centres undefined)	8
CCOC(=O)C(Cc1ccc(NC(=O)/C(=C\c2ccccc2)NC(=O)c2ccccc2)cc1)N1C(=O)c2ccccc2C1=O (centres undefined)	13
COCCCC/C(=N\OCCN)c1ccc(C(F)(F)F)cc1	9&-4

# As entered above:
# Reading of COCCCC/C(=N\OCCN)c1ccc(C(F)(F)F)cc1 in Biofilm kill mix: 9&-4
# Reading of COc1cc(/C=N/NC(=O)c2ccc(O)cc2)ccc1OCC(=O)N1CC(C)OC(C)C1 (centres undefined) in Biofilm kill mix: 15
# Reading of CCc1cc2c(=O)[nH]c(Cc3ccc(OC)cc3)nc2s1 in Biofilm kill mix: 39
# Reading of CN1CCN(C(=O)C2=C[C@H](c3csc4ccccc34)C[C@H](OCc3ccc(CO)cc3)O2)CC1 in Biofilm kill mix: 20

# More structures follow:
Compound	Biofilm kill mix
COc1ccc(-n2nc(C(=O)NCC(=O)NCC3COc4ccccc4O3)c3ccccc3c2=O)c(OC)c1 (centres undefined)	10
Brc1ccc(-c2csc3ncnc(-n4nnc5ccccc54)c23)cc1	11
Cc1ccc(S(=O)(=O)N2CCN(C(=O)CC(C)C)CC2)cc1	6
NC(=O)Nc1cccc2ccccc12	21
Cc1ccc(OCc2ccc(C(=O)Nc3ccc(S(N)(=O)=O)cc3)o2)cc1	15
CC(C)c1cccc(C(C)C)c1NC(=O)COC(=O)[C@H](C)NC(N)=O	12
Cc1cccc(NC(=O)NNS(=O)(=O)c2ccc(F)cc2)c1	5
CC1COC(=O)C(NNc2ccc(Cl)c(Cl)c2)=N1 (centres undefined)	10
Fc1ccc(N/N=C2/CC(c3ccccc3)Oc3ccccc32)c(F)c1 (centres undefined)	9
CCOCCc1nnc(NC(=O)C(C)Oc2ccccc2)s1 (centres undefined)	8
Cc1ccc(C(=O)CSc2ncnc3sc4c(c23)CCC(C)C4)cc1 (centres undefined)	9
COC(=O)C1=C(C)NC(C)=C(C(=O)OC)C1c1ccc(OC(=O)c2oc3ccccc3c2C)c(OC)c1	17
O=C(COC(=O)/C=C/c1ccc(Cl)cc1Cl)NCc1ccco1	23
COc1ccc(NC(=O)CCN2C(=O)C3C4CCC(C4)C3C2=O)cc1 (centres undefined)	7
Cc1cccc(-n2nnc(C(=O)NCc3ccccc3Cl)c2N)c1	10
Cc1ccc2[nH]c(=O)c(CN(Cc3cccs3)C(=S)NCc3ccco3)cc2c1	14
O=C(CN1C(=O)C2C3C=CC(C3)C2C1=O)Nc1cccc(S(=O)(=O)N2CCCC2)c1 (centres undefined)	11
Cc1ccc2cccc(Oc3ncnc4scc(-c5ccc(Cl)cc5)c34)c2n1	7
Cc1ccc(OCc2nnc(SCc3cc(=O)[nH]c4ccccc34)n2-c2ccccc2)cc1	12
Cc1ccc(/C=N/NC(=O)CN2CCN(Cc3ccccc3)CC2)o1	23
COC(=O)Cn1c(O)c(N=NC(=O)c2ccc3c(c2)OCO3)c2ccccc21	13
O=C(COC(=O)c1ccc(Cl)nc1)NCc1cccs1	5
Cc1oc(-c2ccc(Cl)cc2)cc1C(=O)/C(C#N)=C/Nc1ccccc1	25
O=C(NCCCN1CCOCC1)C(=O)NCC1CCCO1 (centres undefined)	11
FC(F)Oc1ccc(-n2cc(-c3ccc(Cl)cc3)[n+]3c2CCCCC3)cc1	23
N#Cc1ccc(NC(=O)Nc2ccc(Oc3ccc(NC(=O)Nc4ccc(C#N)cc4)cc3)cc2)cc1	12
Nn1c(C2COc3ccccc3O2)n[nH]c1=S (centres undefined)	12
Cc1ccc(-c2[nH]ncc2/C=N/n2c(C)nc3ccccc3c2=O)cc1	17
O=C(Nc1ccccc1-c1ccccc1NC(=O)c1ccco1)c1ccco1	10
O=C(O)c1cc([N+](=O)[O-])c(NCCC2=CCCCC2)c([N+](=O)[O-])c1	7
Cc1cnc(C(=O)OCC(=O)Nc2cc(S(=O)(=O)N3CCCCC3)ccc2Cl)cn1	4
CCCOc1ccc(/C=N/Nc2cccc([N+](=O)[O-])c2)c(O)c1	13
CCOC(=O)c1cnn(-c2ccc([N+](=O)[O-])cc2)c1N	27
NCCc1ccc(O)c(O)c1	3
